Source: PubChem (ICCB-Longwood Screening Facility, Harvard Medical School)
GIV-Gai inh – inhibitors of GIV GBA-motif binding to rat Galpha-i3 | Galpha-i3/FITC-GIV peptide fluorescence polarization, 90 min; active compounds read low; scaled: aluminum fluoride 0%, vehicle 100% | percent of control (FP), % (concentration not given with the values) | 210,000 compounds, 0.42% hits | AID 1224905;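 active means replicate mean at 85% of control or lower, very high polarization wells dropped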;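 further: wells of about 15 µL received 100 nL stock; the first replicate is given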
Target sequence (P08753 whole entry, looked up): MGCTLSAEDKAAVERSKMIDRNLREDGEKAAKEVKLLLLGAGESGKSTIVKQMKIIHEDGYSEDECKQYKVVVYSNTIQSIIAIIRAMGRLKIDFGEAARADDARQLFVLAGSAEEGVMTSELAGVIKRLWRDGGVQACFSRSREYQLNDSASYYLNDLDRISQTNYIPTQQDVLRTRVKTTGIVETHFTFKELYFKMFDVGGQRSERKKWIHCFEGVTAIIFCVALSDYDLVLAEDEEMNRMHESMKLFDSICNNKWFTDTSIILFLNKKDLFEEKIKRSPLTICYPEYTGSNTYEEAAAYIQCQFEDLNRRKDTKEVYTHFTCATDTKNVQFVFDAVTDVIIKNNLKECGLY
* marks the source's active call; other numbers are inactive results. This is a subset, so the mix of outcomes need not match the whole.

Compound,GIV-Gai inh
CCn1c2ccccc2c2cc(C3N(Cc4ccccc4)CCN3Cc3ccccc3)ccc21,117.3
COCC(=O)N1CCC(Oc2cc(N3CCCC3)ncn2)C1 (centres undefined),104.5
N#CC1(C#N)[C@H](c2cccc(Br)c2)[C@@H](C(N)=O)N2c3ccccc3C=C[C@@H]21,103.8
Cn1c(=O)c2nc3c(nc2n(C)c1=O)[nH]c1ccccc13,105.4
CCN(C)C(=O)c1ccc(N2CC3CC(C2)c2cccc(=O)n2C3)c(NC(=O)c2cc(OC)ccc2Br)c1 (centres undefined),101.8
CCN1C(=O)NC2C1NC(=O)N2CC (centres undefined),107.1
COc1ccc(C(=O)Nn2c(SCC(=O)NCc3ccccc3)nc3ccccc3c2=O)cc1,108.3
Cc1ccc(-c2ccc(-n3nc(C)c(S(=O)(=O)NCC(C)C)c3C)nn2)cc1,102.0
Cc1cccc(NC(=O)CSc2nnc3c(n2)-c2cccc4cccc-3c24)c1C,129.6
CC1(C)CC(n2c(=S)[nH]c3c(c2=O)C2(CCCCC2)Cc2ccccc2-3)CCO1 (centres undefined),114.1
COc1ccccc1N1CCN(c2ncnc3sc(C(=O)N4CCN(C)CC4)c(C)c23)CC1,98.5
Cc1ccc(N2CCN(S(=O)(=O)c3cc(-c4cc(C)no4)cs3)CC2)c(C)c1,104.9
Cc1ccc(-c2ccc(Nc3cc(F)ccc3F)nn2)cc1S(=O)(=O)N1CCCC1,100.7
Cc1ccc(-c2nc(CSCC(=O)NC(C)(C)C)no2)cc1,101.2
COC(=O)c1ccc2c(=O)n(Cc3ccc4c(c3)OCO4)c(SCC(=O)NCCc3ccc(OC)c(OC)c3)nc2c1,105.2
Cc1ccc(NC(=O)Nc2cccc(CCc3nc4ccccc4n3C)c2)cc1C,96.6
CCC(NC(=O)c1ccc2c(c1)OCCO2)c1ccc2c(c1)OCCCO2 (centres undefined),102.3
CCOC(=O)c1c(NC(=O)COc2ccccc2C)sc(C(=O)N(CC)CC)c1C,111.3
Cc1cc(NC(=O)CCc2nc(CSc3nc4ccccc4[nH]3)no2)no1,109.2
CCc1cc(C2CCCN2S(=O)(=O)c2ccc(Br)s2)on1 (centres undefined),103.7

An excerpt from above in order of their number in GIV-Gai inh, low to high:
| mol | GIV-Gai inh |
| --- | --- |
| COc1ccccc1N1CCN(c2ncnc3sc(C(=O)N4CCN(C)CC4)c(C)c23)CC1 | 98.5 |
| COC(=O)c1ccc2c(=O)n(Cc3ccc4c(c3)OCO4)c(SCC(=O)NCCc3ccc(OC)c(OC)c3)nc2c1 | 105.2 |
| CCOC(=O)c1c(NC(=O)COc2ccccc2C)sc(C(=O)N(CC)CC)c1C | 111.3 |

(cont.)
Compound,GIV-Gai inh
COc1ccc(NS(=O)(=O)c2cc3c(c([N+](=O)[O-])c2)-c2c(cc(S(=O)(=O)Nc4ccc(OC)cc4)cc2[N+](=O)[O-])C3=O)cc1,104.6
CCc1cccc(C)c1NC(=O)CSc1n[nH]c(-c2ccc(OC)cc2)n1,97.9
CC(C)(O)/C=C1/Oc2ccc([N+](=O)[O-])cc2C1N1CCOCC1 (centres undefined),115.3
CC(C)CCNC(=O)N1CCC2(C1)C(=O)Nc1ccccc12 (centres undefined),103.1
COC(OC)C12c3ccccc3C(c3ccccc31)C1C(=O)N(c3ccccc3)C(=O)C12 (centres undefined),107.7
O=C(CC1(O)C(=O)N(Cc2ccc(Cl)cc2)c2ccccc21)c1ccco1 (centres undefined),114.0
O=S(=O)(NC1CC1)c1ccc(-c2cnc(C3CCCC3)o2)s1,107.7
Cc1cc(S(=O)(=O)Nc2cc(C(=O)NCCc3ccccc3)ccc2N2CC3CC(C2)c2cccc(=O)n2C3)ccc1F (centres undefined),101.3
CCOC(=O)CSc1nc2c(sc(=S)n2-c2ccc(C(=O)OCC)cc2)c(=O)n1Cc1ccco1,119.2
c1csc(-c2nc(-c3ccc(-c4csc(C5CC5)n4)cc3)no2)c1,102.2
O=C(Nc1cccc2nsnc12)c1nc(-n2cnnc2)ccc1Br,104.4
CCOC(=O)N1CCN(C(=O)c2c[nH]c3ccc(S(=O)(=O)N(C)c4ccc(CC)cc4)cc3c2=O)CC1,108.0
CC1CCc2c(oc3ccc(NS(=O)(=O)c4cccc([N+](=O)[O-])c4)cc23)C1 (centres undefined),109.4
CCOC(=O)c1ccc(NC(=O)CN(c2ccc(Cl)cc2Cl)S(=O)(=O)c2ccccc2)cc1,111.2
COC(=O)c1cc(N2C(=O)/C(=C/c3ccc(OC)c(Br)c3)C=C2c2ccccc2)ccc1Cl,7.0*
O=C1c2ccccc2C(=O)c2cc(S(=O)(=O)N(C3CCCCC3)C3CCCCC3)ccc21,105.9
COc1ccc(N2CCN(c3ncnc4c3cnn4-c3ccc(C)cc3C)CC2)cc1,108.6
CC(C)C(=O)N1CC(C)(C)c2cc(S(=O)(=O)N3CCCCC3)ccc21,108.1
CSC1=NC(=Nc2ccc(C)cc2)C2(CCC(C(C)(C)C)CC2)N1c1ccc(O)cc1 (centres undefined),102.8
CCCCN(C)C(=O)CS(=O)Cc1cnn(-c2ccccc2)c1-n1cccc1 (centres undefined),104.0

Next part, starting with the last 4 of the part before.
Compound,GIV-Gai inh
COc1ccc(N2CCN(c3ncnc4c3cnn4-c3ccc(C)cc3C)CC2)cc1,108.6
CC(C)C(=O)N1CC(C)(C)c2cc(S(=O)(=O)N3CCCCC3)ccc21,108.1
CSC1=NC(=Nc2ccc(C)cc2)C2(CCC(C(C)(C)C)CC2)N1c1ccc(O)cc1 (centres undefined),102.8
CCCCN(C)C(=O)CS(=O)Cc1cnn(-c2ccccc2)c1-n1cccc1 (centres undefined),104.0
Cc1cc(C2C(C#N)=C(N)N(c3ccc([N+](=O)[O-])cc3Cl)C3=C2C(=O)CCC3)c(C)s1 (centres undefined),101.1
CC(C)c1nnc(-c2ccc(S(=O)(=O)N3CCN(C4CCCCC4)CC3)o2)o1,98.7
CCN1C(=O)CC(c2ccccc2)=Nc2ccccc21,113.4
O=[N+]([O-])c1ccc(Nc2nc(NCCN3CCOCC3)nc(N3CCOCC3)n2)cc1,105.2
Cc1cc(-n2c(=S)sc3c(=O)[nH]c(SCC(=O)NCc4ccco4)nc32)ccc1Cl,103.3
Cc1cc(NC(=O)CSc2nn3c(=O)c(C)nnc3s2)no1,100.0
O=C(CCN1CCOCC1)Nc1cc(C(=O)NCCC2=CCCCC2)ccc1N1CC2CC(C1)c1cccc(=O)n1C2 (centres undefined),109.3
Cc1ccc(NC(=O)Cn2cnc3sc(C(=O)Nc4ccc5c(c4)OCCO5)c(C)c3c2=O)cc1Cl,112.1
O=C(NC1CCCCCC1)c1ccc2c(c1)[nH]c(=S)n1c3ccccc3nc21,101.8
COc1ccccc1C(O)(C(=O)N(NC(C)=O)c1ccccc1)c1ccccc1OC,113.7
OC(CN1CCCCCC1)Cn1c(-c2ccccc2)c(-c2ccccc2)c2ccc3ccccc3c21 (centres undefined),107.3
COc1ccc(N(CC(=O)NCCSc2ccc(Cl)cc2)S(=O)(=O)c2ccccc2)c(OC)c1,117.2
CC(=O)NC1C(OCc2ccccc2)OC(CO)C(OC(C)=O)C1OC(C)=O (centres undefined),117.2
CC1(C)CC(=O)C2=C(C1)Nc1ccccc1N(S(C)(=O)=O)C2c1ccccc1 (centres undefined),100.4
Cc1ccc(-c2cc(C(=O)N3CCc4ccccc4C3)c(C)[nH]2)cc1C,101.2
O=C(NCc1ccc(F)cc1)c1ccc(Oc2ccnc(-c3ccc(F)cc3)n2)cc1,102.6
Cc1nnc(-c2cccn2CC(=O)NCc2ccccc2Cl)o1,100.9
N#CC1=C(N=Cc2ccccc2)c2ccccc2CC12CCCCC2,107.2
Cc1ccc2c(c1)N(C(=O)NC1CCCCC1)C(C)(C)CC2C (centres undefined),108.8
CCOC(=O)CSc1nc(NCc2ccc3c(c2)OCO3)c2ccccc2n1,112.2
CC(C)N1C(=O)C2C3CC(=O)C(c4ccccc43)C2C1=O (centres undefined),118.1
COc1ccc(OC)c([C@@H]2[C@@H](C(=O)c3ccccc3)N3c4ccccc4C=C[C@@H]3C2(C#N)C#N)c1,104.2
O=S(=O)(Nc1ccc2nncn2n1)c1ccc(Br)s1,105.2
O=S(=O)(NCCc1n[nH]c(Cc2cccc(F)c2)n1)c1cc(F)ccc1F,103.8
O=c1[nH]c(=S)[nH]c2c1C1(CCCCC1)Cc1ccccc1-2,110.3
Cc1ccc(N2C(=O)CSC23C(=O)Nc2ccccc23)c(C)c1 (centres undefined),105.7
CCOC(=O)c1ccc(-n2c(=S)sc3c2nc(SCC(=O)NC2CCCCC2)n2c4ccccc4nc32)cc1,107.2
N#CC1=C(NC(=O)c2ccccc2)c2ccccc2CC12CCCC2,104.2
CC1=C(C(=O)Nc2ccc(Cl)cc2)C(c2ccco2)C(C#N)=C(SCC(=O)Nc2ccccc2)N1 (centres undefined),111.3
O=S(=O)(NC1CCCc2ccccc21)c1ccc(-c2cnc(C3CCC3)o2)s1 (centres undefined),112.4
COc1ccc(-c2nc(-c3ccc4nncn4c3)no2)c(OC)c1,103.2
CC(=O)N1CCCc2cc(S(=O)(=O)Nc3c(C)n(C)n(-c4ccccc4)c3=O)ccc21,98.4
Cc1ccc(C23CC4CC(CC(C(=O)CN5CCCCC5)(C4)C2)C3)cc1,106.4
CC1CCN(C(=O)CSc2nc3c(sc(=S)n3Cc3ccco3)c(=O)n2-c2ccccc2)CC1,109.2
CCN1C(=O)/C(=C2/Sc3ccccc3N2CCCS(=O)(=O)O)SC1=S,119.4
O=C(O)c1cccc(Nc2nc(-c3ccc([N+](=O)[O-])cc3)nc3ccccc23)c1,102.9
Cc1ccc(C)c(N2C(=O)C3C4c5ccccc5C(c5ccccc54)C3C2=O)c1 (centres undefined),114.7
CCCc1cc(C2CCCN2Cc2cn[nH]c2-c2ccc(C)c(C)c2)no1 (centres undefined),113.0
NC(=O)CNC(=O)c1nc(-c2ccsc2)nc2c1OCCO2,111.4
CC(C)(C)NC(=O)NC1CCN(C(=O)C2CC2)C1 (centres undefined),100.7
CCC(C)C(=O)N1c2ccccc2-c2c(ssc2=S)C1(C)C (centres undefined),104.0
Cc1oc(-c2ccc(Cl)cc2)nc1CSCC(=O)NC1CCN(Cc2ccccc2)CC1,112.4
CC(=O)Nc1ccc([N+](=O)[O-])cc1-c1nc2cc3ccccc3cc2[nH]c1=O,108.1
COc1ccc(OC)c(S(=O)(=O)Cc2nc(-c3ccc(OC)c(OC)c3)no2)c1,101.2
Cc1ccc(-c2noc(CSc3nc4cc5c(cc4c(=O)n3CC3CCCO3)OCO5)n2)cc1 (centres undefined),102.9
O=C1C2C(c3ccc(Cl)cc3Cl)OC3(C(=O)c4ccccc4C3=O)C2C(=O)N1C1CCCC1 (centres undefined),107.6
CCc1cc(C2CCCN2Cc2cn[nH]c2-c2cccs2)on1 (centres undefined),102.7
Clc1cc(C2CC(c3cccs3)=Nc3ccccc3S2)cc2c1OCO2 (centres undefined),103.4
CC(C)CN1CCN(Cc2nc(-c3ccc(N4CCOCC4)nc3)no2)CC1,101.7
O=c1n(Cc2ccccc2F)nc2c(S(=O)(=O)N3CCOCC3)cccn12,98.7

Going on with the list:
Compound,GIV-Gai inh
Cc1ccc(CN2C(=O)/C(=C3\SC(=S)N(CCS(=O)(=O)O)C3=O)c3cc(Br)ccc32)cc1,112.0
CCCCCOc1ccc(C2C3=C(CC(C)(C)CC3=O)OC3=C2C(=O)CC(C)(C)C3)cc1,112.6
COc1cccc(N/C(SCc2ccc(C)cc2C)=C(/C#N)C(=O)NCc2ccccc2)c1,101.2
CCN1CCCn2nc(C3CCN(C(=O)c4ccc(Br)o4)CC3)cc2C1=O,105.1
COc1ccc(-n2c(=S)[nH]c3cc(C(=O)NCCSCc4ccccc4)ccc3c2=O)c(OC)c1,106.9
CCOC(=O)c1[nH]c(C)c(CN(Cc2ccc(C)cc2)C(=O)C2CC2)c1C,94.0
COc1ccc(-c2cc(Oc3cccc(C(=O)NCc4ccc(OC)cc4OC)c3)ncn2)cc1,101.1
Cc1nc(-c2cc(S(=O)(=O)Nc3ccc(Br)cc3F)c(C)s2)sc1C,101.8
Cc1ccc(S(=O)(=O)NCc2nnc(NC(=O)c3cccc(NC(=O)C(F)(F)F)c3)s2)cc1,104.6
COc1ccc(OC)c(CNS(=O)(=O)c2cc(-c3cc(C)no3)cs2)c1,100.8
CNC(=O)c1nc(C(C)(C)NC(=O)c2ccoc2)nc2c1OCO2,104.5
COc1cccc(NC(=O)N2CCC3(CC2)Nc2cc(OC)ccc2-n2cccc23)c1,105.5
CC(C)(C)NC(=O)CSc1nnc2c(n1)-c1cccc3cccc-2c13,116.9
Cc1ccc(C(=O)Nc2cccc(C(=O)N3CCCC(C(=O)NCC4CCCCC4)C3)c2)cc1 (centres undefined),102.5
COc1ccc(C)cc1NC(=O)CN(C)S(=O)(=O)c1cc2c(cc1C)NC(=O)CO2,107.0
CCN(CC)c1cc(C)nc(Nc2ccc(NS(=O)(=O)c3ccc(Br)cc3)cc2)n1,105.4
CCOC(=O)c1c(S(=O)(=O)N2CCC(C(=O)N3CCN(c4ccccc4)CC3)CC2)c(C)n(C)c1C,105.5
CS/C(C)=C/c1sc2ccc(Cl)cc2[n+]1CCCS(=O)(=O)[O-],109.6
Cc1ccc(C2NC(C(=O)O)CS2)cc1 (centres undefined),100.7
CC(=O)Nc1ccc(S(=O)(=O)N2CCOc3ccc(C(=O)NCc4ccc(C)cc4)cc3C2)cc1,97.9
